StopGo reporter: High Throughput Screening for Foot and Mouth Disease Virus Antivirals | human cells with a luciferase reporter of 2A StopGo recoding; control for the full effect not named in the record | Potency, µM (highest dose often 57.9 µM), for the others: at the top dose signal change, negative = less light | 1.2% of 410,000 active | AID 1159524, 2015; active = well fitted falling curve with a large enough effect; inconclusive = small, poorly fitted or top-dose-only effect; inactive = no such curve, though single readings can be large or run the other way; tested in HEK293T cells; note: % is set by controls: 0 for no effect and ±100 for the full control effect; nearly all actives have a fitted effect of over 45% in size; luciferase light after 4 h
SARS PLP yeast: qHTS of Yeast-based Assay for SARS-CoV PLP. S. cerevisiae expressing SARS-CoV PLpro, growth rescue; control for the full effect not named in the record. Potency, µM (doses to about 32.9 µM), for the others: at the top dose activity, positive = growth rescue. 0.19% of 330,000 active. AID 485353, 2010; active means well fitted rising curve with a large enough effect; inconclusive means small, poorly fitted or top-dose-only effect; inactive means no such curve, though single readings can be large or run the other way; note: 0% is about no effect; nearly all actives have a fitted effect of over 55% in size; growth read by luminescence after 48 h
RE007 growth inh: qHTS Assay for Inhibitors of the HIV-1 protein Vpr; S. pombe RE007 Vpr strain, BacTiter-Glo ATP luminescence, 24 h; control for the full effect not named in the record; Potency, µM (highest dose often 92.2 µM), inactives show at the highest dose activity change, negative = less growth; 0.21% of 360,000 active; AID 651644, 2012; active = well fitted falling curve with a large enough effect; inconclusive = small, poorly fitted or top-dose-only effect; inactive = no such curve, though single readings can be large or run the other way;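 note: % is set by controls: 0 for no effect and ±100 for the full control effect; nearly all actives have a fitted effect of over 50% in size; the assay follows cell death caused by Vpr and the record does not say whether a fall means rescue or toxicity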
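Fission yeast RE007 carrying one integrated HIV-1 vpr copy, seeded at OD 0.01 in PMG+AL medium with 23 nL pinned compound. Grown 24 h at 30 degrees; viability read by BacTiter-Glo luminescence after 5 min.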
The depositor's hits bear a star; ? = inconclusive; [ ] = another dose, or the depositor's remark. Potency is the fitted concentration of half-maximal effect.

SMILES	StopGo reporter	SARS PLP yeast	RE007 growth inh
COC(=O)[C@]1(C)N[C@H](CN(C)C(=O)Nc2ccc(C(F)(F)F)cc2)[C@@H]2C(=O)N(C)C(=O)[C@@H]21	-16%	0%	-4%
O=C1CCc2cc(S(=O)(=O)Nc3ccccc3)ccc2N1	13%	3%	-10%
COc1ccc(S(=O)(=O)NC(CC(C)C)C(=O)NC(C)c2cccs2)cc1 (stereo not drawn)	-6%	-1%	-8%
CCOC(=O)C1CCN(C(=O)C(C)Oc2ccc(C(=O)c3ccccc3)cc2)CC1 (stereo not drawn)	?	-5%	-21%
COc1ccccc1N1CCN(C(=O)c2cccc(S(=O)(=O)NCc3cccnc3)c2)CC1	?	-10%	11%
O=C(COC(=O)c1ccc(-n2cnnn2)cc1)Nc1cc(Cl)ccc1F	-2%	-3%	-19%
O=C(c1ccco1)N1N=C(c2ccc(Br)cc2)CC1c1ccco1 (stereo not drawn)	-29%	2%[6.58 µM]	2%
CS(=O)(=O)c1ccc(Cl)c(NC(=O)C2CCN(S(=O)(=O)c3cccs3)CC2)c1	-25%	6%	-14%
CC[C@@]12C(=O)N(c3cccc(Br)c3)C(=O)N1[C@H](c1cccc(C)c1)[C@@H]1C(=O)N(Cc3ccccc3)C(=O)[C@@H]12	-10%	2%	-4%
COCCN(C(=O)CN1CCc2ccccc21)c1c(N)n(Cc2ccccc2)c(=O)[nH]c1=O	-14%	1%	22%
C1=C(c2c[nH]c3ccccc23)CCN(Cc2ccccc2)C1	-11%	4%	-16%
O=C1CCN(Cc2ccccc2)C=C1c1ccc(C(F)(F)F)cc1	-3%	-3%	-12%
CCOc1[nH]n(-c2ccccc2)c(=O)c1C=Nc1ccccc1	-8%	-3%	-5%
Cc1ccc(CCN2CCN=C2Nc2ccccc2)cc1	-10%	-7%	3%
Cc1cc(C)c(NC(=O)CNC(=O)c2ccc3c(=O)n4c(nc3c2)CCC4)c(C)c1	-14%	4%	-7%
Cc1ccccc1[C@@]1(C)ON(c2ccccc2C(F)(F)F)C1=O	?	-20%	-2%
COC(=O)[C@@]1(Cc2ccccc2)[C@H]2C(=O)N(Cc3ccccc3)C(=O)[C@H]2[C@H]2CN=C(SC)N21	0%	-16%	-9%
O=C(Cc1ccc(Cl)cc1)OCC(=O)c1ccc[nH]1	22%	2%	-5%
COc1ccc(NC(=O)Nc2cccc3c2O[C@H](CN(C)Cc2ccc(-c4ccccc4)cc2)[C@@H](C)CN([C@H](C)CO)C3=O)cc1	8%	-1%	10%
Cc1cc(C)c(CN2CCN(C(=O)Cn3cnc4c(OCc5ccccc5)ncnc43)CC2)c(C)c1	?	-12%	-28%
COc1ccc(C/C(C)=N/Nc2nc(C)cc(=O)[nH]2)cc1	-13%	2%	-1%
CC(Oc1cccc(F)c1)C(=O)Nc1ccc(N2CCOCC2)cc1 (stereo not drawn)	-12%	-1%	-2%
C[C@@H]1CCCCCCCCC(=O)OCCN(C(=O)OC(C)(C)C)[C@H](C)CCCCCCCCC(=O)OCCN(C(=O)OC(C)(C)C)[C@H](C)CCCCCCCCC(=O)OCCN(C(=O)OC(C)(C)C)[C@H](C)CCCCCCCCC(=O)OCCN1C(=O)OC(C)(C)C	-5%	-1%	-2%
CN(C)Cc1n[nH]c(=O)c2ccccc12	?	-10%	-10%
Nc1ncnc2c1ncn2[C@@H]1O[C@H](CNCc2ccc(-c3cc(C(F)(F)F)ccc3Cl)o2)[C@@H](O)[C@H]1O	-26%	7%	-24%
COc1ccc(S(=O)(=O)N2CCN(C(=O)c3ccc(NC(C)=O)cc3)CC2)cc1	-4%	-1%	0%
CCC(=O)c1ccc(OC(=O)C2CCN(C3=NS(=O)(=O)c4ccccc43)CC2)cc1	-21%	-2%	11%
COc1cc([C@H]2Oc3c(OC)cc(CCCO[C@@H]4O[C@H](CO)[C@@H](O)[C@H](O)[C@H]4O)cc3[C@@H]2CO)ccc1O	0%	1%	2%
CC1CCC(NC(=O)C2CC(O)CN2S(=O)(=O)c2ccc([N+](=O)[O-])cc2)CC1 (stereo not drawn)	-5%	0%	-7%
Nc1ncnc2c1ncn2[C@@H]1O[C@H](CNCc2ccccc2OC2OC(CO)C(O)C(O)C2O)[C@@H](O)[C@H]1O (stereo partly drawn)	-13%	-7%	-1%
CCc1nnc(NC(=O)c2ccc(OCc3c(C)noc3C)c(OC)c2)s1	-3%	0%	1%
C[C@@H](NC(=O)Cn1ccc(NC(=O)OCc2ccccc2)nc1=O)c1cccc2ccccc12	-15%	5%	1%
O=C(COC(=O)c1ccc2ncsc2c1)Nc1ccc(Cl)cc1	-18%	-6%	-13%
Cc1cccc(NS(=O)(=O)c2ccc(C)c(C(=O)N(C)C)c2)c1	35%[activator]	7%	-1%
O=C(O)C1Cc2[nH]cnc2C(c2ccc(F)cc2)N1 (stereo not drawn)	9%	3%	16%
CCOC(=O)c1ccc(-c2c(-c3ccccc3OC)sc3ccc(OC)cc23)cc1F	0%	5%	9%
CC(=O)Nc1ccc(SC[C@H](Cc2ccccc2)N2CC[C@@H](C)CCC2=O)cc1	62%[activator]	0%	6%
CCN(CC)CCNC(=O)c1ccc(NC(=O)COc2ccc3c(c2)CCC3)cc1	-24%	-7%	-16%
CCOC(=O)c1cc(C#N)c(SC(C)C(=O)NC2CCCCC2)nc1C (stereo not drawn)	-8%	-4%	-20%
CC(C)(C)NC(=O)NC(=O)CSc1ccc(S(=O)(=O)N2CCCCC2)cn1	0%	1%	2%

The closing 3 entries of the section above lead into the next:
SMILES	StopGo reporter	SARS PLP yeast	RE007 growth inh
CCN(CC)CCNC(=O)c1ccc(NC(=O)COc2ccc3c(c2)CCC3)cc1	-24%	-7%	-16%
CCOC(=O)c1cc(C#N)c(SC(C)C(=O)NC2CCCCC2)nc1C (stereo not drawn)	-8%	-4%	-20%
CC(C)(C)NC(=O)NC(=O)CSc1ccc(S(=O)(=O)N2CCCCC2)cn1	0%	1%	2%
CC1(C)CC2CC(C)(CN2C(=O)COC(=O)c2cccnc2Cl)C1 (stereo not drawn)	-12%	-5%	-3%
Cc1ccc(NC(=O)CN(C)C(=O)c2ccc(OCc3cn4ccccc4n3)cc2)cc1	18%	-8%	4%
N#Cc1ccc(S(=O)(=O)Nc2ccccc2N2CCOCC2)cc1	-2%	-3%	16%
CC(=O)c1c(C)[nH]c(C(=O)COC(=O)COc2ccccc2F)c1C	-5%	11%	-9%
CC(C)CC1(C)NC(=O)N(CC(=O)N2C(C)CCCC2C)C1=O (stereo not drawn)	-11%	3%	1%
Cc1cc(C(=O)NCc2ccco2)sc1C	15%	0%	-8%
CN(CC(=O)Nc1ccc(F)cc1)C(=O)CNC(=O)C1CCCCC1	-5%	5%	6%
COc1cc(NC(=O)[C@@H]2CCCN2S(=O)(=O)c2cccc3cccnc23)cc(OC)c1OC	9%	1%	4%
Cc1ccccc1Nc1c(-c2ccccn2)nc2ccccn12	?	-25%	-14%
COC(=O)[C@]1(C)N[C@H](CN(C)C(=O)c2ccc(C(C)(C)C)cc2)[C@@H]2C(=O)N(Cc3ccccc3)C(=O)[C@@H]21	-17%	-6%	-19%
O=C1N[C@@H](Cc2ccccc2)COC(=O)[C@H](Cc2ccc(F)cc2)CC/C=C/C[C@H]1CC(=O)N(CCO)Cc1ccccc1	-32%	-3%	2%
Cc1ccc(OCCC(=O)Nc2ccc(S(=O)(=O)Nc3nccs3)cc2)cc1	60%[activator]	1%	15%
O=C(C1=C(O)C(=O)N(Cc2cccnc2)C1c1cccc(Oc2ccccc2)c1)c1ccco1 (stereo not drawn)	39%[activator]	14%	7%
CC[C@]12c3[nH]c4ccccc4c3CCN1C(=O)C(CC(=O)NCCc1ccccn1)C[C@@H]2C(=O)N1CCN(C(=O)c2ccco2)CC1 (stereo partly drawn)	-1%	2%	5%
CC(=O)NCCc1ccc(C(=O)CSc2nnc(C3CC3)n2C2CC2)cc1	-1%	-4%	-3%
CCc1c(C)sc(NC(=O)c2noc(C)c2[N+](=O)[O-])c1C#N	9%	-5%	4%
CC(OC(=O)c1cccs1)C(=O)NC1CCCCC1C (stereo not drawn)	-4%	0%	-15%
CC(C)CCNC(=O)C1(c2cccs2)CCOCC1	-3%	4%	7%
CCS(=O)(=O)N1Cc2ccccc2CC1C(=O)N(C)CC(=O)Nc1ccc(OC)cc1 (stereo not drawn)	10%	4%	1%
CCOC(=O)[C@H]1[C@H]2COc3ccc(Br)cc3[C@@H]2N2C(=O)c3ccc(C)cc3NC(=O)[C@@]12C	-19%	0%	6%
CNC[C@@H]1Oc2ccc(NS(=O)(=O)c3ccc(Cl)cc3)cc2C(=O)N([C@H](C)CO)C[C@@H]1C	0%	-6%	6%
O=C(Nc1ccncc1)c1cc(S(=O)(=O)N2CCCC2)ccc1Cl	?	2%	-10%
CC1CCN(C(=O)c2[nH]cnc2C(=O)Nc2nccs2)CC1	33%[activator]	8%	2%
O=[N+]([O-])c1ccc(N2CCOCC2)c2cccnc12	-15%	-2%	7%
O=C(c1ccc(N2CCCC2=O)cc1)N1CCN(c2ccccc2Cl)CC1	-27%	0%	-7%
C=CCN1C(=O)c2ccc(C(=O)NCC(=O)Nc3c(C)cc(C)cc3C)cc2C1=O	-3%	1%	-3%
CSc1ncnc2c1ccn2CC(=O)Nc1ccc(C)c(C)c1	0%	1%	1%
O=C(COC(=O)CCC(=O)c1cccs1)Nc1ccc(F)c(F)c1F	1%	-6%	-3%
CC(C)=CCC/C(C)=C/CNC(=O)C[C@H]1C[C@H](C(=O)N(C(C)C)C(C)C)[C@@]2(C)c3[nH]c4cc(-c5ccco5)ccc4c3CCN2C1=O	0%	-1%	0%
COc1ccc(-c2coc3cc(OC(C)=O)c(OC)cc3c2=O)cc1	27%	0%	8%
N#C/C=C(/c1ccc(F)cc1)N1CCOCC1	-3%	0%	7%
CN(/C(=N\S(=O)(=O)c1ccccc1)c1ccccc1)c1ccc(O)cc1	24%	2%	-6%
O=C(c1cccc(N2C(=O)c3ccccc3C2=O)c1)N1CCCCCC1	16%	-2%	-3%
O=C(CCNC(=O)c1ccc(Br)cc1)NCCCN1CCCC1=O	-11%	2%[6.58 µM]	-1%
O=C(NCc1ccccc1CN1CCCCC1)c1ccccc1N1CCCC1=O	-3%	-13%	-6%
O=[N+]([O-])c1ccccc1CS(=O)(=O)c1ccccc1	55%[activator]	-12%	3%
Cc1ccccc1-c1cc(C(=O)NCc2ccc(OC(F)(F)F)cc2)n(CC2CC(c3cccnc3)=NO2)n1 (stereo not drawn)	-17%	-3%	20%
CCCNC(=O)C(Cc1ccc(C(F)(F)F)cc1)NC(=O)c1ccc2ccccc2n1 (stereo not drawn)	-24%	-2%	-3%
O=C(Cc1ccccc1)Nc1ncccn1	2%	-1%	-6%
COCCn1c(SCC(=O)Nc2cccnc2Cl)nc2cc(Cl)ccc2c1=O	-4%	4%	0%
Cc1ccccc1-n1c(C)nnc1SCC(=O)N(C)C1CCS(=O)(=O)C1 (stereo not drawn)	-3%	0%	14%
O=C(/C=C/c1ccco1)N1CCN(S(=O)(=O)c2ccccc2)CC1	-17%	-1%	7%
CC(C)NC(=O)N(C)C[C@H]1Oc2c(NS(=O)(=O)c3ccccc3)cccc2C(=O)N([C@H](C)CO)C[C@@H]1C	46%[activator]	-10%	2%
CCN(c1ccccc1)S(=O)(=O)c1ccc(C(=O)Nc2nnc(-c3ccco3)o2)cc1	?	2%	8%
O=C(COc1ccc(Cl)cc1)NCc1nnc(SCC(=O)Nc2ccc(F)cc2F)o1	-13%	3%	20%
COc1ccc(-c2ccc(N)cn2)cn1	48%[activator]	0%	2%
NC(=O)NCC(=O)N1CCN(S(=O)(=O)c2ccc(Cl)s2)CC1	-20%	-4%	-2%
O=C(C1COc2ccccc2O1)N1CCN(c2ccccc2O)CC1 (stereo not drawn)	?	-10%[6.58 µM]	-22%
COC(=O)c1c(C)[nH]c(C(=O)C(C)OC(=O)c2c(C)noc2C)c1C (stereo not drawn)	-26%	3%	-5%
c1ccc2cc(CCCc3cc4ccccc4cn3)ncc2c1	47%[activator]	1%	-20%
CCOc1ccc(-n2c(=O)c3sccc3n(Cc3ccc(C)cc3)c2=O)cc1	4%	-1%	11%
COc1c(OC)c2[nH]c(=O)cc3c4ccccc4n(c1=O)c23	-24%	-1%	-9%
COc1cccc(NC(=O)COC(=O)C2CC(=O)N(c3ccc(C)cc3)C2)c1 (stereo not drawn)	-3%	-3%	3%

Not all compounds are listed. The share of hits here may be higher or lower than overall.
